# Screening results from PubChem BioAssay.
# Arbovirus inh – antivirals against arbovirus infection | arbovirus infection cell-based antiviral screen | inhibition, % at 10 µM | 200,000 tested, 0.37% active | AID 1251;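 active = inhibition from about 30%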;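 note: bluetongue infection of BSR cells; cell survival read as ATP light after 72 h; 0% = infected wells without compound and 100% = uninfected wells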
# Mtb bLac sens – beta-lactam sensitization of Mtb H37Rv | M. tuberculosis H37Rv growth with meropenem, percent inhibition; hits of this screen are not shown here | inhibition, % at 25 µM | 330,000 tested, 0.27% active | AID 434955;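 active = about 74% or more and at least 40 points above the plate without the antibiotic, then above 30% in a dose series; inconclusive = first-round hits that could not be retested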;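 note: growth measured after seven days incubation then overnight dye step; 0% = bacteria only wells and 100% = bacteria with antibiotic; twin plates without the antibiotic show which effects depend on it; some results filed as inactive read as strong as hits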
# RecA splice inh – inhibitors of M. tuberculosis RecA intein splicing. cell-free RecA intein splicing, fluorescence. inhibition, %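 (about 9 µM by stock and volumes)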. 290,000 tested, 0.75% active. AID 2221; in the data active = inhibition above about 30%; inconclusive = no clear call, values can overlap the other calls;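 note: 0% = vehicle wells and 100% = reference inhibitor control wells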
# Target sequence (P9WHJ3 whole entry, looked up, canonical isoform): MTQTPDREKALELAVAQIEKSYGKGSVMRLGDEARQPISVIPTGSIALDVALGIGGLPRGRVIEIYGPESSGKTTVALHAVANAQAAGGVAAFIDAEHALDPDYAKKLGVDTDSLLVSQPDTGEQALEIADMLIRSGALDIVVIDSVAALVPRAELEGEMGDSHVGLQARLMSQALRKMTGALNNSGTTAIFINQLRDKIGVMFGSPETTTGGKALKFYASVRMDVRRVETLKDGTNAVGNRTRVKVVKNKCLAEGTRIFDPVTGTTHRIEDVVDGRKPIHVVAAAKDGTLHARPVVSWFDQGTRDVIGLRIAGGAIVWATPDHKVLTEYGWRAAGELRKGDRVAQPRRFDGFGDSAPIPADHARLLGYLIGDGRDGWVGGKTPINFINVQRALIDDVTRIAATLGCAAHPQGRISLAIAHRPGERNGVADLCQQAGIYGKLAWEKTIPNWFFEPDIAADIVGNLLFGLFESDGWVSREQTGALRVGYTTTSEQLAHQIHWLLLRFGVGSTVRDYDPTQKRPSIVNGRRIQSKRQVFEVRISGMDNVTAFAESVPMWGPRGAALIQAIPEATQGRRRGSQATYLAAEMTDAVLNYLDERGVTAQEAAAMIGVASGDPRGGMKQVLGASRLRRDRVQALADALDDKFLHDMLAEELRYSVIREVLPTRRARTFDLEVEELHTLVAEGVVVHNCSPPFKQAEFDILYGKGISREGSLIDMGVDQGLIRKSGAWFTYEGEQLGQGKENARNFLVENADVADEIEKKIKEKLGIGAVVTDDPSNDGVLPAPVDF
# Mtb H37Rv – M. tuberculosis H37Rv growth inhibitors, H37Rv strain (AID 1626) | M. tuberculosis H37Rv growth inhibition; higher % means a stronger effect | inhibition, % at 10 µM, or IC50 in µM where a hit was titrated | 220,000 tested, 0.95% active;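 active = confirmed in a dose series; inconclusive = inhibition above 80% but not taken into the dose series; inactive = below 80% or under 30% at every dose of the series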;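 note: bacteria incubated seven days before Alamar blue readout; 0% = bacteria only wells and 100% = bacteria with antibiotic wells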
# YopH PTP inh – blocks Yersinia enterocolitica YopH tyrosine phosphatase | inhibition, %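 (about 10 µM by stock and volumes)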 | AID 898 | fluorescence Ex485/Em525 | 140,000 tested, 0.16% active;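 active = inhibition of 50% or more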;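 note: controls were vehicle for no effect and minimum signal wells for full effect; inactives centre near -20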
# Arbovirus inh repeat – second read-out of Arbovirus inh, no call of its own (marks repeat the call); inhibition, %; measured here: 10K subset replicate screen; many hits read low in the repeat;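 first of two repeat runs on a subset; 0% = infected and 100% = uninfected wells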
# Starred values were filed as active, the others as inactive; ? = inconclusive; · = not tested or not shown.
SMILES,Arbovirus inh,Mtb bLac sens,RecA splice inh,Mtb H37Rv,YopH PTP inh,others
C=CCN(CC=C)S(=O)(=O)c1ccc(F)cc1,7,1,-0.1,-3%,2,
Cc1[nH]c(=O)c(C#N)c(C)c1CCC(=O)N(C)CC(=O)Nc1ccc(Cl)c(Cl)c1,·,2,-1.6,·,·,
Cc1occc1C(=O)NNC(=O)c1ccccc1C(=O)O,-3,-7,-1.3,-2%,·,
CC1C2=C(CC(C)(C)CC2=O)NC2=C1C(=O)CC(C)(C)C2,6,5,-390,-3%,·,
C=CCNCC(=O)NN=C(c1ccccc1)c1ccccc1,9,-6,-4.3,9%,-13,
CCCN(Cc1ccccc1)C(=S)Nc1ccc(C(C)=O)cc1,23,24,1.8,-4%,·,
COc1ccc2cc(C3(C)NC(=O)NC3=O)ccc2c1 (centres undefined),-7,-19,-0.7,-3%,-27,
CCCN1CCC(=O)N(CCOc2ccccc2)CC1,·,-7,0.2,·,·,
COC(=O)CCC(=O)N1CCCC(CNS(=O)(=O)c2ccc(OC)cc2)C1 (centres undefined),-7,-2,1.3,-7%,·,
CCc1ccccc1NC(=O)C1C2C=CC(O2)C1C(=O)O (centres undefined),·,-7,-0.4,·,·,
CC(C)CCNC(=O)NC(=O)COC(=O)CNC(=O)C1CCCCC1,2,-1,0.8,-5%,·,
Cc1c(Cl)cccc1NC(=O)Cn1cnc(S(=O)(=O)N2CCCC2)c1,·,-1,9.1,·,·,
CCN(CC)CCOC(=O)c1ccc(NC(=O)/C=C/c2cccs2)cc1,-2,5,-0.3,-1%,-10,
CCOC(=O)c1cc(C(=O)c2cc(Br)ccc2O)coc1=N,9,-4,0.4,-8%,·,
O=c1cc(CSc2ccccc2)nc(-c2ccccc2)[nH]1,3,1,1.4,3%,·,
S=C(c1ccccc1)N1CCN(C(=S)c2ccccc2)CC1,-4,9,-0.6,-9%,-21,
C#CCn1cc(/C=N/Nc2nc3ccccc3[nH]2)c2ccccc21,-40,96,15,?,-30,
O=C(CN1CCN(S(=O)(=O)c2ccccc2)CC1)Nc1ccc(Cl)cn1,·,-4,-1.9,·,·,
O=C(/C=C/c1ccc(Cl)cc1)N(Cc1cccs1)C1CCS(=O)(=O)C1 (centres undefined),·,-3,3.6,9%,·,
COc1cccc(/C=C2\SC(=S)N(CCC(=O)Nc3ccc(O)cc3)C2=O)c1,·,-10,20,·,·,
COc1cccc(C(C(=O)NCC2CCCO2)N(C(=O)Cn2nnc3ccccc32)c2ccc(NC(C)=O)cc2)c1OC (centres undefined),·,-4,-2.4,·,·,
CN(c1ccccc1)S(=O)(=O)c1nnc(NC(=O)C2CCCCC2)s1,·,-3,1.0,·,·,
Cc1[nH][nH]c(=O)c1C(c1ccccc1[N+](=O)[O-])C(C#N)C#N (centres undefined),4,1,70*,9%,·,
O=C(NNC(=O)c1cccs1)c1csc(N2CCOCC2)n1,·,-4,-1.8,·,·,
Cc1cc(C(=O)OCC(=O)Nc2ccc(S(=O)(=O)N3CCOCC3)cc2)c(C)o1,9,-5,·,6%,-30,

# The closing two records of the part above are carried over, then new ones follow.
SMILES,Arbovirus inh,Mtb bLac sens,RecA splice inh,Mtb H37Rv,YopH PTP inh,others
O=C(NNC(=O)c1cccs1)c1csc(N2CCOCC2)n1,·,-4,-1.8,·,·,
Cc1cc(C(=O)OCC(=O)Nc2ccc(S(=O)(=O)N3CCOCC3)cc2)c(C)o1,9,-5,·,6%,-30,
COc1ccc(S(=O)(=O)N(C)CC(=O)Nc2ccccc2C(F)(F)F)cc1OC,-5,-7,-2.6,6%,-15,
O=C(Cc1ccc(NC2=NC3CS(=O)(=O)CC3S2)cc1)N1CCN(c2ccc(F)cc2)CC1 (centres undefined),·,-7,-2.6,·,·,
CCOC(=O)NN1C(=O)c2ccccc2NC1c1ccccc1F (centres undefined),6,-2,0.8,8%,·,
Cc1ccccc1Nc1nc(N)nc(CSCc2c(C)noc2C)n1,12,-3,-0.3,-7%,12,
O=C(Nc1cc(Br)ccc1O)C1CC(c2c(F)cccc2Cl)=NO1 (centres undefined),·,57,18,·,·,
COC(c1ccccc1)c1nnc(CCC(=O)N2CCCCCCC2)o1 (centres undefined),6,-4,·,-7%,·,
CCOC(=O)C1CCN(Cc2oc(CO)cc(=O)c2O)CC1,-3,?,·,·,9,
CCCCCCCCCCOC(=O)c1csc2nnsc12,9,4,0.2,4%,-29,
CC(C)OCCCNC(=O)CCSc1ccc(Cl)cc1,5,5,-1.6,-13%,-9,
CC1(C)Cc2c(sc3c2C2=NCCN2C=N3)CO1,·,-2,-3.1,0%,-20,
COc1ccc(S(=O)(=O)N2CCC(C(=O)NCCN3CCOCC3)CC2)cc1C,·,0,0.6,·,·,
CN(C)C(CNC(=O)Cc1cccc(C(F)(F)F)c1)c1ccccc1 (centres undefined),·,4,-0.7,·,·,
O=C(NCCO)/C(=C\c1cccs1)NC(=O)c1cccs1,-2,3,-0.7,-4%,-21,
Cc1cc(=O)oc2c3c(cc(OCC(=O)N4CCC(C(=O)O)CC4)c12)OC(C)(C)CC3,·,-1,-1.3,·,·,
Cc1ccc(-c2noc(CSc3nnc(-c4ccncc4)n3-c3ccc(F)cc3)n2)cc1,3,-3,·,3%,-1,
O=C(NCCS(=O)(=O)N1CCN(c2ccccc2)CC1)c1ccc2c(c1)OCO2,·,2,7.1,·,·,
Cc1c(C(=O)N2CCOCC2)sc(NC(=O)c2ccccc2F)c1C#N,·,10,-0.6,·,·,
Cc1ccc(NC(=O)CCn2cccc2)cc1F,-5,35,3.3,-2%,18,
CCS(=O)(=O)N1CCN(C(=O)COc2ccc(-c3ccccc3)cc2)CC1,-5,-7,-2.6,-1%,-22,
COc1cccc(C(=O)NC(=S)Nc2ccc(N3CCCC3)cc2)c1,8,22,-0.6,62%,-39,
CC1OC(Oc2ccc3ccc(=O)oc3c2-c2c(O)ccc3cc(Oc4ccc5ccc(=O)oc5c4)c(=O)oc23)C(O)C(O)C1O (centres undefined),5,4,-63,-5%,-27,
O=C(CN1C2=NCCN2c2ccccc21)c1ccc(Br)s1,-9,-3,-0.7,2%,-20,
CSCC[C@@H](C(=O)NCc1cccs1)N1Cc2ccccc2C1=O,6,6,0.7,-8%,-16,
C#CC(=O)N(c1cccc(OC)c1)C(C(=O)NC1CCCC1)c1cccs1 (centres undefined),-41,7,11,-7%,-28,
CCC(C)[C@H](NC(=O)c1cc2cc(Cl)ccc2n1C)C(=O)N1CCC(C(=O)O)CC1 (some centres undefined),·,2,-0.3,·,·,

# Five structures already listed, ordered by molar mass, rising.
SMILES,Arbovirus inh,Mtb bLac sens,RecA splice inh,Mtb H37Rv,YopH PTP inh,others
CC1(C)Cc2c(sc3c2C2=NCCN2C=N3)CO1,·,-2,-3.1,0%,-20,
O=C(NCCO)/C(=C\c1cccs1)NC(=O)c1cccs1,-2,3,-0.7,-4%,-21,
CCOC(=O)NN1C(=O)c2ccccc2NC1c1ccccc1F (centres undefined),6,-2,0.8,8%,·,
O=C(CN1C2=NCCN2c2ccccc21)c1ccc(Br)s1,-9,-3,-0.7,2%,-20,
CCS(=O)(=O)N1CCN(C(=O)COc2ccc(-c3ccccc3)cc2)CC1,-5,-7,-2.6,-1%,-22,

# Three entries picked at random from the list so far:
SMILES,Arbovirus inh,Mtb bLac sens,RecA splice inh,Mtb H37Rv,YopH PTP inh,others
CCCCCCCCCCOC(=O)c1csc2nnsc12,9,4,0.2,4%,-29,
COc1cccc(C(=O)NC(=S)Nc2ccc(N3CCCC3)cc2)c1,8,22,-0.6,62%,-39,
O=C(NCCS(=O)(=O)N1CCN(c2ccccc2)CC1)c1ccc2c(c1)OCO2,·,2,7.1,·,·,

# Going on with the list.
SMILES,Arbovirus inh,Mtb bLac sens,RecA splice inh,Mtb H37Rv,YopH PTP inh,others
COc1cccc(N2CC(C(=O)Nc3nnc(SCC(=O)NCC4CCCO4)s3)CC2=O)c1 (centres undefined),·,7,1.2,·,·,
O=C(NCc1ccc(F)cc1)c1ccc(CNc2c(N3CCOCC3)c(=O)c2=O)cc1,·,-19,-1.6,-1%,·,
CCCC(=O)Nc1ccc(C(N)=O)cc1,4,-5,-0.9,-2%,·,
O=C1NC(O)(c2ccccc2)Oc2ccccc21 (centres undefined),·,-22,0.3,-7%,·,
COc1ccccc1OCC(=O)N/N=C1\CCc2ccccc21,1,-9,4.9,4%,0,
CCSc1nnc(-c2cc(Br)ccc2N=Cc2c(C)[nH]n(-c3ccccc3)c2=O)c(=O)[nH]1,3,1,6.2,3%,·,
CCn1c(NC(=O)C2CCCCC2)nc2ccccc21,-4,99,-0.2,1.9µM*,-17,
CCOC(=O)c1c(NC(=O)c2ccco2)n(C2CCCCC2)c2nc3ccccc3nc12,10,68,55*,-1%,-7,
CCOC(=O)C(CC)(CC)C(=O)/C=C/c1ccc(Br)cc1,-15,8,4.4,-6%,-26,
COc1ccc(-c2csc(N(CCCN(C)C)C(=O)c3ccccc3Cl)n2)cc1,·,8,0.1,·,·,
N#CCCN(Cc1cccnc1)C(=O)Nc1ccc(Cl)c(Cl)c1,8,3,-1.5,-6%,14,Arbovirus inh repeat=0
CC(=O)Nc1c(-c2ccccc2)nc2ncccn12,4,-7,-2.7,0%,-46,Arbovirus inh repeat=4
COc1ccccc1/C=N/NC(=O)c1ccc(C)nc1,·,0,-1.1,·,·,
O=C(NCc1ccco1)C(=O)NCC1OCCN1S(=O)(=O)c1ccc(Cl)cc1 (centres undefined),1,0,0.2,3%,-31,
Cc1[nH]n(-c2ccc([N+](=O)[O-])cc2)c(=O)c1C=NCCc1ccc(S(N)(=O)=O)cc1,-2,-1,-3.0,2%,·,
O=C(COC(=O)c1ccc(-c2ccc([N+](=O)[O-])cc2)o1)NC(=O)NC1CCCCC1,9,81,5.6,31%,-25,
CCc1ccc([C@@H]2C[C@H]3CN(Cc4ccccc4OC)C(=O)[C@]34CCCN24)cc1,-9,-5,3.7,11%,·,
Cc1ccc(Cl)c(OC(=O)c2nn(C(C)C)c(=O)c3ccccc23)c1,-1,3,-1.6,5%,9,
CCC[C@@H]1C[C@@H](C(=O)N[C@@H](C2O[C@H](SC)[C@H](O)[C@@H](O)[C@H]2O)[C@H](C)Cl)N(C)C1 (some centres undefined),1,76,2.9,54%,·,
O=C(CCN1C(=O)C2CCCCC2C1=O)N1CCN(S(=O)(=O)c2c(F)cccc2F)CC1 (centres undefined),·,-11,-0.1,·,·,
O=C(O)c1c[nH]c2ccc(S(=O)(=O)N3CCOCC3)cc12,9,5,0.1,7%,-9,
CC(C)(C)c1ccc(NC(=O)c2cc[n+]([O-])cc2)cc1,·,2,4.1,·,·,
Cc1cc(=O)oc2cc(OC(C)C(=O)NCC3CCCO3)ccc12 (centres undefined),1,-4,0.1,2%,·,
COC(=O)c1nc2n(n1)C(c1ccc(OC)c(OC)c1OC)C1=C(CCCC1=O)N2 (centres undefined),1,-2,-0.7,-12%,-14,
COc1ccccc1CN1CCNC(=O)C1CC(=O)NCc1c(C)n[nH]c1C (centres undefined),8,-9,-2.4,-14%,·,

# The list continues.
SMILES,Arbovirus inh,Mtb bLac sens,RecA splice inh,Mtb H37Rv,YopH PTP inh,others
CC(CCc1ccccc1)NC(=O)C1CCN(C(=O)c2sccc2-n2cccc2)CC1 (centres undefined),-6,1,3.7,1%,-36,Arbovirus inh repeat=-2
COc1ccc(-c2cn[nH]c2-c2ccc(O)cc2O)cc1OC,·,-1,-2.0,·,·,
CC1(C)OC(=O)C(C(c2ccccc2)C(C#N)C(N)=O)=C(O)O1 (centres undefined),-1,12,1.0,-1%,-50,
COc1ccc(NC2CCCN(C(=O)CCCN3CCCCC3=O)C2)cc1 (centres undefined),·,5,-3.5,·,·,
O=C(Cn1cc2c(n1)CCCC2)NCCc1ccccc1,7,?,1.3,0%,-8,Arbovirus inh repeat=-1
Cc1cc(NC(=O)C2C3C(=O)N(Cc4ccc(Cl)cc4)C(C(=O)NC4CCCCC4)C34C=CC2(C)O4)no1 (centres undefined),-4,-3,-1.7,·,-85,
Cc1ccccc1CN1C[C@@H]2C[C@@H](c3cn[nH]c3-c3ccccc3)N3CCC[C@@]23C1=O,-2,-11,4.5,-7%,·,
N#Cc1cc(NCC2CCCO2)c([N+](=O)[O-])cc1C#N (centres undefined),-1,11,-0.7,-7%,-19,
CSc1ccc(/C=N/NC(=O)CN2CCN(Cc3ccccc3Cl)CC2)cc1,-14,2,-0.1,0%,-28,
Cc1ccc(C(=O)Nc2ccc3c(c2)OCO3)o1,-19,-6,0.3,8%,-26,
O=C(/C=C/c1ccccc1Cl)Nc1ccccc1,·,12,2.7,4%,·,
COc1ccc(NC(=O)CCCn2c(=O)c3sccc3n(Cc3ccccc3)c2=O)cc1,-2,0,-6.5,2%,-13,
Cc1nnc(SCC(=O)NC2CCCCCC2)n1C(C)C,·,-6,-4.7,·,·,
CCCCOC(=O)Nc1ccc(S(=O)(=O)Nc2ncccn2)cc1,-1,43,-2.8,-1%,·,

# Not all compounds are listed (hit frequency here may not be typical).
